Compound activity as filed in PubChem.
LANA-H2A inh: blocks KSHV LANA binding to histone H2A/H2B. cell-free LANA-H2A/H2B peptide, fluorescence polarization. inhibition, % (test concentration not listed). actives 0.6% (n = 320,000); in the data active means inhibition mostly above about 10%, no sharp cut-off; inactive means mostly below about 6.7%;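 further: stock transfer was 7.5 nL into about 10 µL; 0% = median of vehicle wells and 100% = median of positive control wells; one replicate is shown; the record names a cut of 25% in any replicate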
UCH37 inh: blocks the human deubiquitinase UCH37; purified proteasome/UCH37, Ub-AMC cleavage fluorescence; inhibition, % (concentration not given with the values); actives 0.33% (n = 330,000); AID 588478;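 active means mean of two replicates above 20%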;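 further: 0% = compound-free wells with enzyme and 100% = wells lacking proteasome; stock transfer was 100 nL into about 20 µL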
Target sequence (Q9Y5K5 whole entry, looked up): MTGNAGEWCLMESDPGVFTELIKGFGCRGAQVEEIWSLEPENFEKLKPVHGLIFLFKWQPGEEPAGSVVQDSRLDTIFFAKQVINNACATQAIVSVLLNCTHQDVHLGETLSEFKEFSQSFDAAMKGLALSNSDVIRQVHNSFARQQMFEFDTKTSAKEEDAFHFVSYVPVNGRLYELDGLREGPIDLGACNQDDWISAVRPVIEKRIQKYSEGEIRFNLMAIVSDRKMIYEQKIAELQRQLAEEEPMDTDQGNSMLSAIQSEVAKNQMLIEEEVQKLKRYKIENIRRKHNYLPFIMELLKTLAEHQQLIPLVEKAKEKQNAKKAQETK
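Reagent: Ub-AMC substrate; assay system: Proteasome-associated human UCH37 deubiquitinase; controls: no-proteasome and no-compound wells; read-out: % inhibition of Ub-AMC cleavage fluorescence; timing: 30 min preincubation with enzyme, 25 min cleavage at room temperature; signal: AMC fluorescence from Ub-AMC cleavage, excitation 355 nm, emission 460 nm; buffer or medium: Tris-HCl pH 7.4 plus ovalbumin, ATP-MgCl2, DTT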
HNF4A DNA FP: change in binding of human HNF4 alpha to DNA; P41235; HNF4a-FITC DNA binding, fluorescence polarization, 1 h; activity change, % at 10 µM; actives 0.3% (n = 360,000); AID 1224865; in the data active means activity change above about 30%, passing the limit was not always enough;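 further: controls were the assay level and a saturating level of protein; the project sought stronger binding though the title names inhibitors; some compounds called inactive have numbers as strong as hits; positive values seem to mean higher polarization but the record does not say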
ALR H2O2 inh: blocks human ALR sulfhydryl oxidase activity; purified ALR, DTT oxidation, H2O2 HRP-luminol luminescence; inhibition, % (no concentration beside the values); actives 3.8% (n = 290,000); P55789;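 active means mean and each replicate at 75% or more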;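 further: stock transfer was 7.5 nL into about 7.5 µL; 0% = neutral wells and 100% = wells with inactivated enzyme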
Target sequence (P55789 whole entry, looked up): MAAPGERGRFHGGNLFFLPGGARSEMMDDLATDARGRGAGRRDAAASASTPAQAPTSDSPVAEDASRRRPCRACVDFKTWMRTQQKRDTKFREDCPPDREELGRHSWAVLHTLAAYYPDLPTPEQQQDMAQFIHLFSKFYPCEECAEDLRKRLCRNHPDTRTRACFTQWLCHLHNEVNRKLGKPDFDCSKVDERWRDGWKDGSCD
Ecoli growth: blocks Escherichia coli growth. actives 0.21% (n = 330,000). OD600, 23 h; stronger effect = lower value. OD600 absorbance (no concentration beside the values). AID 1053175;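 active means OD600 absorbance below the run mean of sample wells minus 3.6 SD, in any replicate, cut at about 0.56 in these data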;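 further: stock transfer was 300 nL into about 60 µL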
FGF22 binding: binders of recombinant human FGF22 by thermal shift; calls only at 9.99 µM; SYPRO orange fluorescence; percent of sucrose octasulfate shift, DMSO zero; actives 1.5% (n = 340,000); AID 651658;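 active means melting point raised past a set limit in the mean and every replicate; three in four hits are not shown here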
Beta2AR agonist: agonists of human beta-2 adrenergic receptor inducing internalization | actives 0.43% (n = 340,000) | P07550 | response, % (no concentration beside the values) | Am2.2-beta2AR cells, FAP receptor internalization, flow cytometry; reference of the scale not given here;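 active means response above a set limit, near 3 SD of response in nonfluorescent compounds, cut at about 42% in these data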;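 further: stock transfer was 100 nL into about 11 µL; a reference agonist was the positive control; negative values mostly stem from fluorescent compounds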
Target sequence (P07550 whole entry, looked up): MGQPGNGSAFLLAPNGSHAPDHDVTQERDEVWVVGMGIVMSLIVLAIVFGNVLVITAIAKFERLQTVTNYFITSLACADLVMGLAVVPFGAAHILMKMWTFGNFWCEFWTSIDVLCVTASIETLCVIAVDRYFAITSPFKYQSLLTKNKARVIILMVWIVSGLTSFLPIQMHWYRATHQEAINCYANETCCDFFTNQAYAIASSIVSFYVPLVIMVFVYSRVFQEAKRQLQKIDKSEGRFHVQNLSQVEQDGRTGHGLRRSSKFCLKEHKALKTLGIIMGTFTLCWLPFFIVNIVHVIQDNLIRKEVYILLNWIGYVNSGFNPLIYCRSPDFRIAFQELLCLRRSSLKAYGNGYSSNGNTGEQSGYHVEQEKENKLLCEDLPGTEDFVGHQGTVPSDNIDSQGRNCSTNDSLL
Active calls of the source: *; i = inactive; . = not tested or not shown; & = joins results of further samples. The list is partial. The share of hits here may be higher or lower than overall.

SMILES	LANA-H2A inh	UCH37 inh	HNF4A DNA FP	ALR H2O2 inh	Ecoli growth	FGF22 binding	Beta2AR agonist
C#CCOCCOCCOCCNc1nc(N2CCN(C(=O)[C@H]([C@@H](C)CC)n3cc([C@@H](N)Cc4ccc(O)cc4)nn3)CC2)nc(N2CCN(C(=O)[C@H](CCCCN)n3cc([C@@H](N)C(C)CC)nn3)CC2)n1 (some centres undefined)	-3.2	4.3	5.7	3.2	.	.	4.5
CCN1C(=O)/C(=C/C=C2/Sc3ccc4ccccc4c3N2CCO)SC1=S	-3.6	6.6	19.4	-2.4	0.907	i	-90.2
COc1ccc(-c2cc(C(=O)Nc3cc(C)on3)no2)cc1	-5.1	1.4	2.5	0.3	0.701	i	-5.4
O=C(Nc1ccc(Cl)c([N+](=O)[O-])c1)c1cnccn1	.	1.4	0.2	.	0.669	i	-9.8
CCN1CCN(c2ccc(S(=O)(=O)N3CCOCC3)cc2NC(=O)c2ccc(Cl)s2)CC1	-5.1	0.0	3.4	-10.3	0.673	.	8.4
Cc1ccc(NC(=O)C(=O)NCCCN2CCOCC2)c(C)c1	1.2	0.8	-4.5	.	0.729	i	1.3
COc1ccc(OC)c(C(c2nnnn2CC2CCCO2)N2CCN(C)CC2)c1 (centres undefined)	2.2	1.5	-0.1	-25.3	0.727	.	5.0
Cc1cc(Br)c(NC(=O)COC(=O)CSc2nnc(-c3ccc(Cl)cc3)o2)c(Br)c1	-4.3	2.6	1.8	-1.4	0.738	.	-2.7
CC1=C(C(=O)OCc2ccccc2)C(c2cccnc2)c2c(n(C)c(=O)n(C)c2=O)N1 (centres undefined)	7.7	-15.7&-9.8	-3.9&2.5	-4.7	0.618&0.705	i	-7.3&-6.8
O=C(COC(=O)c1ccc([N+](=O)[O-])cc1)Nc1cccnc1Cl	1.2	-0.5	-0.8	.	0.704	i	-0.2
Cc1cccc(OCc2nnc(SCC(=O)Nc3cccc(C(=O)N4CCOCC4)c3)n2C)c1C	0.8	4.8	0.9	-2.5	0.67	.	-2.1
CN(C)c1nnc(-c2ccc(Cl)cc2)o1	2.1	-12.8	3.5	.	0.702	i	-5.4

The last 2 entries of the section before lead into the next.
SMILES	LANA-H2A inh	UCH37 inh	HNF4A DNA FP	ALR H2O2 inh	Ecoli growth	FGF22 binding	Beta2AR agonist
Cc1cccc(OCc2nnc(SCC(=O)Nc3cccc(C(=O)N4CCOCC4)c3)n2C)c1C	0.8	4.8	0.9	-2.5	0.67	.	-2.1
CN(C)c1nnc(-c2ccc(Cl)cc2)o1	2.1	-12.8	3.5	.	0.702	i	-5.4
COc1cccc(C2(O)CCN(C(=O)C(C)C)CC2)c1	-3.1	2.6	-1.6	-12.1	0.679	i	4.0
Cc1ccc(C(=O)N2CCN(Cc3nc4sc5c(c4c(=O)[nH]3)CCCC5)CC2)cc1	1.4	3.8	2.8	-4.7	0.661	i	-6.9
CC(c1nccs1)N(C)C(=O)c1ccc(OC2CCN(CCc3ccccc3)CC2)cc1 (centres undefined)	-7.6	0.6	-0.3	-0.4	0.714	i	-6.0
COc1ccc(N2CCN(C(=O)c3cc(=O)[nH]c4ccccc34)CC2)cc1	2.6	4.2	-4.2	49.3	0.705	i	-1.0
CCN(CC)CCNS(=O)(=O)c1ccc2c3c(cccc13)C(=O)N2	-0.7	i	-1.2	-18.3	0.663	i	2.4
COc1cccc(OC)c1C(=O)N1CCN(C(=O)c2ccc(-c3ccccc3)cc2)CC1	-5.5	2.1	-5.1	10.6	0.658	i	7.0
Cc1nc(SCC(=O)NC2CCCCC2)[nH]c(=O)c1C	1.3	3.4	-1.5	0.1	0.643	i	-4.7
CC(C)[C@H]1COCCS(=O)(=O)N1Cc1cccc(Cl)c1	4.5	1.8	7.0	4.1	.	i	0.4
CCCCn1nc(NS(=O)(=O)c2cccc3nonc23)c2cc3cccc(C)c3nc21	7.9	3.2	3.5	98.3*	0.705	i	11.2
C=CCSc1nsc(NC(=O)Nc2cccc(C(C)=O)c2)n1	1.4	5.6	1.6	.	0.61	i	15.9
O=C(CSc1nnc(-c2ccccc2O)n1Cc1ccccc1)NNC(=O)c1ccccc1O	3.3	2.2	1.8	12.2	0.605	.	6.9
Cc1ccc2[nH]c(=O)c3cc(C(=O)N(C)c4ccccc4C)sc3c2c1	1.4	-13.0	1.9	3.8	0.691	i	-2.4
Cc1cn(C2OC(COC(=O)c3ccccc3)C(OC(=O)c3ccccc3)C2OC(=O)c2ccccc2)c(=O)[nH]c1=O (centres undefined)	.	2.1	1.8	.	0.673	.	-3.8
CCOC(=O)C1CCN(C(=O)CCS(=O)(=O)Cc2ccccc2)CC1	2.0	0.6	-4.2	-4.3	0.706	i	-6.8
CC(=O)c1ccc(NC(=S)Nc2ccc3[nH]c(=O)[nH]c3c2)cc1	-10.5	1.2	4.2	-12.7	0.719	i	-0.1
Cc1ccc(-c2cc(C(=O)O)c3sc(N4CCCCC4)nc3n2)cc1	1.8	i	1.2	98.3*	0.692	.	6.6
Cc1cc(=O)n2[nH]c(NCc3ccccc3F)nc2n1	-11.8	4.4	5.7	-3.0	0.68	i	2.9
O=C(NC1CCCCCC1)c1cccnc1Sc1ccc(Cl)cc1	-1.9	1.1	1.5	2.9	0.684	i	-5.2
Cc1ccc(CNC(=O)c2ccc(Cn3cc(-c4ccc(C)cc4)nc3-c3ccncc3)cc2)cc1	2.8	-3.8	-0.5	41.9	0.705	i	-3.8
Cc1nn(-c2ccccc2Cl)c(Cl)c1/C=C(\C#N)C(N)=O	1.4	4.4	-1.2	72.9	0.698	i	-2.7
CCCCC1(C)NC(=O)N(CC(=O)N2CCc3ccccc32)C1=O (centres undefined)	3.1	3.1	2.3	.	0.704	i	-3.0
COc1ccccc1CNC(=O)c1[nH]c(C)c(C(C)=O)c1C	-6.9	1.7	-2.5	-8.1	0.682	i	-2.0
COCCNC(=O)CCC1CCN(Cc2ccc(-c3ccccc3)cc2)CC1	3.4	-0.9	1.6	.	0.697	i	2.3
COCc1nnc(NC(=O)c2ccccc2Oc2ccccc2)s1	2.0	1.1	1.7	20.9	0.698	.	-2.1
CCCn1c(C(C)Nc2nc(-c3ccc(C)cc3)cs2)nc2cc(Cl)c(Cl)cc21 (centres undefined)	4.8	-1.4	4.1	-3.9	0.7	i	-5.7
Cc1ccc(S(=O)(=O)N2CCOCC2)cc1NC(=O)COC(=O)c1cc[n+]([O-])cc1	-1.1	0.8	-4.4	-0.9	0.691	i	-4.7
CN(C)CCNc1ccc(-c2nn(C)c(=O)c3ccccc23)cc1[N+](=O)[O-]	1.0	3.9	3.0	.	0.7	i	12.3
Cc1nc2ccccn2c1-c1ccnc(SCc2ccc(Cl)cc2)n1	1.2	-345.1	-1.2	-5.0	0.69	i	-8.9
O=C(NN1CCOCC1)c1ccc([N+](=O)[O-])cc1	2.0	3.1	0.8	8.4	0.696	i	-4.9
Cc1ccc(-c2ccc(=O)n(CCC(=O)N3CCN(c4cccc(C)c4)C(C)C3)n2)cc1 (centres undefined)	-3.9	1.1	-3.1	22.2	0.67	i	-4.9
CCCN(C(=O)c1ccco1)c1nnc(-c2cccc(C)c2)s1	-4.8	-0.3	-3.3	.	0.714	i	1.1
COc1ccc(C(=O)Nc2nnc(S(=O)(=O)Cc3ccccc3)s2)cc1	0.0	1.2	0.6	-15.9	0.661	i	3.4
COC(=O)c1ccc(C(C(=O)NC2CCCCC2)N(Cc2ccc(F)cc2)C(=O)Cc2cccs2)cc1 (centres undefined)	0.1	3.1	-2.9	-2.4	0.746	.	6.4
COc1ccc(C(C)=O)cc1COC(=O)c1cc2ccccc2cc1O	3.2	0.2	3.0	-18.2	0.682	i	-4.3
Cc1c(Cl)c([N+](=O)[O-])nn1CCCC(=O)Nc1cc(Oc2ccccc2)cc([N+](=O)[O-])c1	6.0	3.1	2.8	-2.9	0.67	i	7.4
CCCCCC(=O)N/N=C/c1cc(Br)c(O)c(OC)c1	2.5	.	1.5	99.3*	.	i	13.4
Cc1ccc(C)c(NC(=O)C(c2ccccc2)N2CCN(CC(=O)N3CCOCC3)CC2)c1 (centres undefined)	-0.2	2.2	1.4	-4.3	0.622	i	-2.8
CCOC(=O)c1cnc2cc(C)ccn2c1=O	8.5	-362.6	0.4	-2.0	0.65	.	5.9
Cc1nc(C)c(-c2csc(Nc3cccc(O)c3)n2)s1	-1.8	4.9	3.9	32.2	0.672	i	-2.6
Cc1nnc(NCCc2ccccc2)c2ccccc12	-5.6	-3.1	4.1	.	0.524	i	-3.0
CC(Sc1nccn1C)C(=O)NC1(C#N)CCCCC1 (centres undefined)	.	1.9	-3.1	.	0.71	i	-1.3
Cn1nnnc1SCC(=O)Nc1nc(-c2ccccc2)c(-c2ccccc2)o1	-2.5	-14.2	-2.3	31.3	0.726	.	6.4
CNC(=S)N1CCN(CCNC2=CC(=O)CC(C)(C)C2)CC1	1.1	-0.2	3.7	-5.0	0.629	i	3.4
Cc1nn(CC(=O)Nc2cccnc2)c(C)c1[N+](=O)[O-]	3.7	4.4	4.7	-2.8	0.7	i	1.1
Cc1ccc(Cn2cccc(NS(C)(=O)=O)c2=O)cc1	.	1.4	5.2	.	0.672	i	13.1
COc1cc2c(cc1OC)C(c1cccc([N+](=O)[O-])c1)N(C(=O)c1ccc(F)cc1)CC2 (centres undefined)	0.9	6.2	-1.4	-0.8	0.701	.	0.1
Cc1ccc2oc(C(=O)N(Cc3ccc(N(C)C)cc3)CC3CCCO3)c(C)c2c1 (centres undefined)	.	0.1	-1.3	-0.5	0.685	i	-7.5
CCOC(=O)c1nnn(-c2nonc2N)c1CSc1ccccc1	4.5	1.5	-0.1	0.1	0.704	.	1.9
O=S(=O)(N/N=C\c1c(F)cccc1Cl)c1ccc(Cl)cc1	-2.5	.	-1.3	-24.2	.	.	-1.7
Cc1cccc(NC(=O)C(CC(C)C)NC(=O)C2CCC(C)CC2)n1 (centres undefined)	-4.6	0.9	-1.6	.	0.708	i	5.1
O=C(Cn1cnc2c(nnn2-c2ccccc2)c1=O)N1CCCc2ccccc21	3.0	2.0	2.0	71.0	0.709	i	9.1
COc1ccccc1C(=O)N1CCN(C2CCN(Cc3ccccc3)CC2)CC1	1.1	-0.7	2.9	1.7	0.692	.	-0.1
C=CCC[C@H](Cc1ccc(F)cc1)C(=O)OC[C@H](Cc1c[nH]c2ccccc12)NC(=O)[C@@H](CC=C)CC(=O)N[C@@H](CO)Cc1ccccc1	-6.0	0.2	-4.6	4.1	.	i	3.2
CCS(=O)(=O)N1Cc2ccccc2CC1C(=O)N(C)CC(=O)Nc1ccc(F)c(F)c1F (centres undefined)	31.5*	2.2	-0.3	-7.2	0.652	i	2.0
CN(C(=O)c1ccc(NC(=O)Cc2ccc(NC(=O)C3CCCN(C(=O)C4CC4)C3)cc2)cc1)C1CCCC1 (centres undefined)	.	0.9	4.2	.	0.686	.	-23.0
Cn1nc(-c2ccccn2)nc2c(=O)n(C)c(=O)nc1-2	-2.7	97.4*	152.6*	-0.4	0.671	i	73.8*
CCN(CC(=O)NCc1ccc(F)cc1)C(=O)c1ccc(Cl)cc1	0.0	2.8	2.3	.	0.671	i	3.4
O=c1[nH]ncc(N2CCCCC2)c1Cl	1.0	8.1	2.4	-5.1	0.653	.	-8.7
Cc1cc(SCC(=O)N2CCCC2=O)nc2c(C)cccc12	3.5	3.8	0.1	-3.1	0.698	i	-1.0
COc1ccc(OCCCC(=O)Nc2ccc(N3CCOCC3)cc2)cc1	2.5	0.1	-0.2	1.7	0.666	i	4.1
CSc1nsc(SC)c1C(N)=O	0.4	-1.9	5.4	0.5	0.657	i	-0.4
CSCCC(NS(=O)(=O)c1ccc(Cl)cc1)C(=O)OCC(=O)N1CCOCC1 (centres undefined)	0.8	3.1	0.2	-2.7	0.694	.	-2.3
CCCN1CCc2c(sc(NC(=O)c3ccc(S(=O)(=O)N(C)c4ccccc4)cc3)c2C(N)=O)C1	0.5	-3.8	34.2*	-9.0	0.7	.	-155.2
